Bioassay records: PubChem BioAssay, National Center for Advancing Translational Sciences (NCATS)
gsp ag: qHTS for Agonist of gsp, the Etiologic Mutation Responsible for Fibrous Dysplasia/McCune-Albright Syndrome: qHTS. gsp mutant cells, cAMP HTRF, 30 min; control for the full effect not named in the record. Potency, µM (doses to about 76.9 µM), for inactives: at the highest dose activation (cAMP increase), usual class: activators. 340,000 compounds, 0.13% hits; active = well fitted activation curve with a large enough effect; inconclusive = small, poorly fitted or top-dose-only effect, or another doubt; inactive = no such curve, though single readings can be large or run the other way; cell line not stated here;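 note: phosphodiesterase inhibitor Ro 20-1724 added with compounds to block cAMP breakdown; potency is the fitted concentration of half-maximal effect; nearly all actives have a fitted effect of over 60% in size; about a fifth of the inactives were tested at one dose only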
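Cells stably selected in G418 were plated at 2000/well, grown 16-24 hr, then given compounds in DMSO with the PDE inhibitor […] (300 uM solution added) for 30 min at 37C; cAMP was read by HTRF.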
gsp antagonist: qHTS for Antagonists of gsp, the Etiologic Mutation Responsible for Fibrous Dysplasia/McCune-Albright Syndrome: qHTS; 340,000 compounds, 0.4% hits; Potency, µM (top dose mostly 76.9 µM), for the others: at the highest dose activity change, negative = inhibition, most hits filed as inhibitors; gsp-mutant cells, cAMP HTRF, 30 min; control for the full effect not named in the record; active = falling curve of any shape with a large fitted effect; inconclusive = falling curve, mostly with a smaller effect; inactive = flat or rising curve; cell line not stated here;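 note: intracellular cAMP measured with PDE inhibitor Ro 20-1724 present during compound exposure; potency is the fitted concentration of half-maximal effect; % is set by controls: 0 for no effect and ±100 for the full control effect; nearly all actives have a fitted effect of over 65% in size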
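Cells, 2000/well, grown 16–24 h in DMEM 10% FBS with 0.5 mg/ml G418, then compounds plus […] (300 uM addition stock), 30 min at 37C. cAMP read by HTRF (cAMP-d2 and anti-cAMP antibody-K in lysis buffer) after 30 min RT.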
CtBP-E1A inh: qHTS Assay for Inhibitors of the CtBP/E1A Interaction | CtBP / adenovirus E1A interaction (AlphaScreen) | AlphaScreen GST-E1A/His-CtBP binding, 1536-well; hits give low values; control for the full effect not named in the record | activity change, % (concentration not given with the values) | 340,000 compounds, 0.49% hits; in the data active means activity change below about -65%; inconclusive means about -30% to -65%; inactive means above about -30%; note: % is set by controls: 0 for no effect and ±100 for the full control effect
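In 5 uL wells, 23 nL compound meets equimolar GST-E1A and His-CtBP (5X stock 125 nM each) for 2 h, 37 °C. Beads (5X, 50 ug/mL) then 1 h, 37 °C, dark.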
D2 PAM: Beta-Arrestin HTS for Positive Allosteric Modulators of the Human D2 Dopamine Receptor: Potentiators; D(2) dopamine receptor (Homo sapiens), P14416; DiscoveRx D2 beta-arrestin cells, luminescence, 90 min; 100% = 57 uM dopamine signal; potentiation, % (test concentration not listed); 360,000 compounds, 0.23% hits; AID 624464, 2012; active = potentiation of 50% or more; inconclusive = 30% to 50%; inactive = 30% or less;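 note: compound concentration not given in the record; tested on top of an EC20 dose of dopamine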
Target sequence (P14416 whole entry, looked up): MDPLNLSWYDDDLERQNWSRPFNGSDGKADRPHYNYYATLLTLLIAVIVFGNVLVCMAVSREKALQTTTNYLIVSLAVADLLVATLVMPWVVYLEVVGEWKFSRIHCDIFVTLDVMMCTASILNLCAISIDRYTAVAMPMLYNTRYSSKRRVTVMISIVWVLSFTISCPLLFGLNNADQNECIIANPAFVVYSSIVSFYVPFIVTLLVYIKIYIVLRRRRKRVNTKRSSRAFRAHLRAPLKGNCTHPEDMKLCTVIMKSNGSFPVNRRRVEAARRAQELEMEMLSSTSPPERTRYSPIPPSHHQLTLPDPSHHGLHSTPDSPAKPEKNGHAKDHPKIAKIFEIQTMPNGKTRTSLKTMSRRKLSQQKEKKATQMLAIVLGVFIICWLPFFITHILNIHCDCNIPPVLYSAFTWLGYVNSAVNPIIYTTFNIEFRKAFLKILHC
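PathHunter beta-arrestin assay in DiscoveRx D2 cells. Compounds were added with an EC20 of dopamine (50 nM final) for 90 min at 37 deg C. Luminescence was read 1 h after detection reagent, with 57 uM dopamine as the EC100 control.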
Six1-Eya2 blk: qHTS Assay for Inhibitors of the Six1/Eya2 Interaction | Homeobox protein SIX1 (Homo sapiens) + Protein phosphatase EYA2 (Homo sapiens), … | activity change, % (test concentration not listed) | AlphaScreen GST-Six1/His-Eya2 binding, biochemical; hits give low values; control for the full effect not named in the record | 360,000 compounds, 0.56% hits; in the data active = activity change below about -65%; inconclusive = about -30% to -65%; inactive = above about -30%; note: % is set by controls: 0 for no effect and ±100 for the full control effect
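Six1/Eya2 binding was read as AlphaScreen signal after compounds were pinned into GST-Six1 plus His-tagged Eya2 (5X stock 250/500 nM) in pH 8.0 Tris/NaCl/TCEP buffer, beads added, then incubated 1 h, 37 C, dark.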
D2 ag: Beta-Arrestin HTS for Positive Allosteric Modulators of the Human D2 Dopamine Receptor: Agonists. activation, % (concentration not given with the values). 360,000 compounds, 0.084% hits. AID 624465, 2012. DiscoveRx PathHunter D2 beta-arrestin, luminescence, 90 min; 100% = 57 uM dopamine signal; in the data active = activation above about 40%; inconclusive = about 15% to 40%; inactive = below about 15%; note: the text of the record calls up to 30% inactive
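Agonist mode: compounds alone added to overnight-plated D2 PathHunter cells for 90 min at 37 C, with 57 uM final dopamine (EC100) defining full response. Beta-arrestin recruitment detected by chemiluminescent reagent, read after 1 h at ambient temperature.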
An asterisk follows results filed as active; ? = inconclusive; · = no result given; [ ] = dose if it differs, or a comment.

Second line of a record: gsp ag	gsp antagonist	CtBP-E1A inh	D2 PAM	Six1-Eya2 blk	D2 ag
> CCC1(c2ccc(F)cc2)NC(=O)N(CC(=O)c2ccc[nH]2)C1=O (configuration not stated)
    8%	8%	-3	-13	-2	-3.1
> Cc1ccc(C(=O)Nc2ccc(S(=O)(=O)N3CCc4ccccc43)cc2)o1
    -7%	?	-13	-1	-7	-0.1
> COC(=O)[C@]1(C)N[C@H](CN(C)C(=O)Nc2ccccc2)[C@@H]2C(=O)N(C)C(=O)[C@@H]21
    ·	8%	1	7	8	-0.4
> CC(C1CC1)N(Cc1ccccc1)C(=S)Nc1ccccc1Cl (configuration not stated)
    -11%	-24%	-2	-8	10	-3.1
> CC1CCCC(C)N1CCNC(=O)CCn1nc(-c2ccccc2)ccc1=O (configuration not stated)
    25%	12%	3	-5	1	-2.1
> COc1ccc(NC2c3ccccc3C(=O)N2c2ccccn2)cc1Cl (configuration not stated)
    -24%	-11%	-14	-14	-3	-5.9
> COC(=O)c1ccc(COc2ccc(C(C)(C)C)cc2)o1
    8%	4%	·	-17	28	-6.1
> COCC1CCN(C(=O)c2cc(COc3ccc(OC)cc3Cl)on2)C1 (configuration not stated)
    0%	·	1	-11	-1	-1.9
> C=CCC[C@H](Cc1ccc(F)cc1)C(=O)OC[C@@H](C)NC(=O)[C@@H](CC=C)CC(=O)N[C@H](CO)Cc1ccccc1
    1%	-6%	-15	-7	15	-0.8
> COc1ccc(/C=C/C2=NN(C)C(=O)CC2)cc1
    -2%	-5%	6	1	1	1.5
> COC(=O)C1C2C=CC3(CN(Cc4ccco4)C(=O)C13)O2 (configuration not stated)
    -8%	9%	0	-8	2	0.6
> COc1ccc(CC(=O)NCC(C)(C)N2CCOCC2)cc1
    14%[15.4 µM]	7%	0	-2	1	-4.0
> Cc1ccc(C(C)C)cc1OCC(=O)NNC(=O)Nc1ccccc1
    1%[15.4 µM]	-8%	2	-13	-4	0.8
> CCOc1cc(C2C(C(=O)c3ccco3)=C(O)C(=O)N2CCc2ccccc2)ccc1O (configuration not stated)
    -6%	4%	6	-9	0	-2.9
> Fc1ccc2c(Cl)c(-c3nnc(-c4cccs4)o3)sc2c1
    13%	-1%	8	-16	2	-2.3
> COc1ccc(/C(O)=C2\C(=O)C(=O)N(Cc3ccco3)C2c2ccc(OC)cc2OC)cc1 (configuration not stated)
    ?	-11%	-18	-21	0	-3.2
> O=C(NC(=S)NCC1CCCO1)c1ccco1 (configuration not stated)
    7%[15.4 µM]	1%	2	-2	5	1.0
> c1ccc(CCn2cccc2)nc1
    4%[15.4 µM]	1%	0	-5	-7	0.4
> C#CCN(C(=O)c1cc(COc2ccc(C)c(C)c2)on1)C1CCCCC1
    -7%[15.4 µM]	-6%	19	-2	7	-0.6
> COc1ccc(CCN(C)C(=O)CSc2nnnn2C)cc1OC
    -38%	11%	·	-3	-4	-4.6
> CCCCN1C(=N)N([C@@H](C)CN2CCC[C@H]2CN2C(N)=NC[C@H]2CC(C)C)C[C@H]1[C@H](C)CC
    ·	11%	-1	-40	-6	0.2
> Cc1ccc(Oc2ncccc2C(=O)NC2CCSC2=O)cc1 (configuration not stated)
    14%[15.4 µM]	·	0	4	5	3.8
> COc1ccc(CNc2nc(NCc3ccc(OC)cc3)n(C(C)=O)n2)cc1
    -38%[inhibitor]	16%	1	-14	1	-4.6
> O=S(=O)(c1c(Cl)cc(Br)cc1Cl)N1CCN(C(=S)NC2CC2)CC1
    21%	-6%	-27	1	-14	10
> CCOCCc1nnc(NC(=O)CSc2ccccc2)s1
    -9%	2%	4	?	1	-0.4
> COc1ccc(C2CC(=O)C(C=NCCO)=C(O)C2)cc1OC (configuration not stated)
    25%	8%	-2	-3	10	-0.9
> CCC(=O)NC1OC(CO)C(O)C(O)C1O (configuration not stated)
    0%	-7%	·	-2	10	4.7
> CC(=O)c1ccc(NC(=O)C2CCCN(S(=O)(=O)c3cccc4nonc34)C2)cc1 (configuration not stated)
    -44%[inhibitor]	-15%	-19	-3	-10	1.6
> CCN(CC)CCn1c(=S)[nH]c2cc(Cl)ccc2c1=O
    -3%	3%	0	-10	-2	-2.0
> CC(C)NC(=O)c1ccc2c(c1)N(CC(=O)N1CCOCC1)C(=O)C(C)(C)O2
    ?	3%	-1	0	9	-0.2

Reformatted field by field: entries from further up.
> COC(=O)[C@]1(C)N[C@H](CN(C)C(=O)Nc2ccccc2)[C@@H]2C(=O)N(C)C(=O)[C@@H]21
  gsp ag: · | gsp antagonist: 8% | CtBP-E1A inh: 1 | D2 PAM: 7 | Six1-Eya2 blk: 8 | D2 ag: -0.4
> CC(C1CC1)N(Cc1ccccc1)C(=S)Nc1ccccc1Cl (configuration not stated)
  gsp ag: -11% | gsp antagonist: -24% | CtBP-E1A inh: -2 | D2 PAM: -8 | Six1-Eya2 blk: 10 | D2 ag: -3.1
> CC1CCCC(C)N1CCNC(=O)CCn1nc(-c2ccccc2)ccc1=O (configuration not stated)
  gsp ag: 25% | gsp antagonist: 12% | CtBP-E1A inh: 3 | D2 PAM: -5 | Six1-Eya2 blk: 1 | D2 ag: -2.1

(further entries)
Second line of a record: gsp ag	gsp antagonist	CtBP-E1A inh	D2 PAM	Six1-Eya2 blk	D2 ag
> Cn1nc(C(=O)Nc2cccc(S(N)(=O)=O)c2)c2ccccc2c1=O
    6%[15.4 µM]	-7%	-3	-6	-7	-4.2
> COc1ccc(C2(c3ccc(OC)cc3)NC(=O)N(CC(=O)NC3CCS(=O)(=O)C3)C2=O)cc1 (configuration not stated)
    -33%[inhibitor]	9%	6	-3	1	-3.9
> O=C1C=CC(=O)N1Cc1ccccn1
    0%	11%	-4	-4	1	-0.3
> COc1ccc(CC2(CO)CCN(Cc3nc(C(C)C)cs3)CC2)cc1
    -4%[15.4 µM]	4%	·	-10	13	3.3
> S=C1NCCOCCOCCOCCOCCNC(=S)N2CCOCCOCCN1CCOCC2
    1%[15.4 µM]	-18%	6	-4	10	-1.1
> CCOC(=O)c1ccc2c(c1)nc(-c1ccc(F)cc1)c1nccn12
    5%	5%	-1	-7	-5	-1.1
> CN(CCCn1cnc2c(OCc3ccccc3)ncnc21)CCc1ccccn1
    ·	8%	-9	·	0	-4.1
> O=C1N=C(N2CCCCC2)S/C1=C\c1cn[nH]c1-c1ccccc1
    7%	1%	12	-18	-1	-3.9
> Cc1cc(C)c(C#N)c(SCCS(=O)(=O)c2ccc(C(C)(C)C)cc2)n1
    17%	26%	-7	-6	11	-2.8
> Fc1ccccc1NC(=S)NCc1ccccc1
    4%	10%	3	-2	-2	2.4
> Cc1ccc(S(=O)(=O)CCN2CCN(c3ccccc3)CC2)cc1
    -3%[15.4 µM]	4%	7	-12	-8	-0.1
> Cn1c(CNC(=O)c2ccco2)nnc1SCC(=O)Nc1ccc(Br)cc1F
    -8%	-6%	5	-13	-1	-4.8
> CCn1cc(C(=O)NCCCN2CCCC(C)C2)c(=O)c2cc(S(=O)(=O)N3CCc4ccccc4C3)ccc21 (configuration not stated)
    -20%	-3%	1	-13	2	-3.0
> COC(=O)CSc1nnc(CNC(=O)Cc2ccccc2)n1-c1ccccc1OC
    -29%	4%	11	-5	5	-0.9
> O=C(NNC1CC(=O)N(c2ccccc2)C1=O)c1ccc(COc2ccccc2Cl)o1 (configuration not stated)
    19%	11%	·	-7	1	-3.3
> Clc1ccc(-c2cc(COc3ccccc3)no2)cc1Cl
    -24%	5%	-2	-5	53	-2.9
> Fc1cccc(-c2cc3nc(-c4ccccc4)cc(N4CCC5(CC4)OCCO5)n3n2)c1
    22%	-5%	27	-10	-22	-3.7
> Cc1ccc(S(=O)(=O)CC(=O)Nc2cc(C)on2)cc1
    14%[15.4 µM]	-29%	14	-11	2	-1.8
> O=C(CSC1CN(C(c2ccccc2)c2ccccc2)C1)N/N=C/c1ccc(Cl)cc1Cl
    3%	-4%	·	-7	0	0.8
> O=S(=O)(c1ccc(F)c(F)c1)N1CCN(c2ncccn2)CC1
    0%[15.4 µM]	4%	-5	-2	7	4.5
> COC(=O)c1cc(C)sc1NC(=O)C1CC(=O)NN1Cc1ccccc1 (configuration not stated)
    -8%	-5%	·	-1	-1	-2.8
> CCOC(=O)C1=C(COC(=O)/C=C/c2cc(Br)ccc2F)NC(=O)NC1C (configuration not stated)
    16%	-9%	6	-12	6	-4.7
> COc1ccccc1C1NC(=O)NC(C)=C1C(=O)OC1CCC(C)CC1 (configuration not stated)
    0%	-6%	·	-22	1	-4.8
> Cc1nc(N)nc(COc2ccccc2)n1
    -3%[15.4 µM]	-13%	-20	0	-9	-4.2
> Cc1ccc(S(=O)(=O)Nc2ccc(N(C)C)cc2)cc1
    3%[15.4 µM]	4%	-18	5	-19	7.6
> Cc1ccc(Cl)cc1N1CCN(C(=O)Cn2ncn3cccc3c2=O)CC1
    ?	-15%	1	-5	-2	1.6
> CSc1oc(-c2ccco2)nc1S(=O)(=O)c1ccccc1
    13%	-2%	-4	-4	-5	-3.7
> Cc1ccc(S(=O)(=O)NNC(=S)NCC2CCCO2)cc1 (configuration not stated)
    0%	6%	10	-8	1	-1.7
> Cc1ccc(/C=C/C(=O)OCC(=O)c2ccc3c(c2)NC(=O)CO3)o1
    7%	-2%	-3	-5	0	-2.5
> CCOC(=O)CC(C(=O)OCC)P(=O)(c1ccccc1)c1ccccc1 (configuration not stated)
    9%	?	-8	-8	-6	-2.9
> O=C1NC(=O)C(=Cc2ccc(Cl)cc2Cl)S1
    -11%	?	1	-8	0	-2.5

Profiles as entered above:
Results for O=C1N=C(N2CCCCC2)S/C1=C\c1cn[nH]c1-c1ccccc1 = gsp ag = 7%; gsp antagonist = 1%; CtBP-E1A inh = 12; D2 PAM = -18; Six1-Eya2 blk = -1; D2 ag = -3.9
Results for O=C(NNC1CC(=O)N(c2ccccc2)C1=O)c1ccc(COc2ccccc2Cl)o1 (configuration not stated) = gsp ag = 19%; gsp antagonist = 11%; CtBP-E1A inh = ·; D2 PAM = -7; Six1-Eya2 blk = 1; D2 ag = -3.3
